CHRM4 PAM: potentiates acetylcholine response at human M4 receptor. P08173. CHO-K1 hM4/Gqi5, Fluo-8 calcium fluorescence, ACh EC20; 0% = ACh EC20, 100% = maximal ACh. activation, % at 3 µM. 360,000 compounds, 0.4% hits;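 active = activation above its plate's cutoff, the mean activation of sample wells plus 3 SD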; also: some results filed as inactive read as strong as hits
CHRM5 PAM: positive allosteric modulators of human muscarinic M5 receptor; AID 624038; P08912; 360,000 compounds, 0.3% hits; CHO-K1 hM5, Fluo-8 calcium, ACh EC20 PAM; 0% = ACh EC20, 100% = ACh EC100; activation, % at 3 µM;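 active = activation above the run cutoff, the mean activation of all test compounds plus 3 SD, cut at about 18% in these data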
Target sequence (P08912 whole entry, looked up): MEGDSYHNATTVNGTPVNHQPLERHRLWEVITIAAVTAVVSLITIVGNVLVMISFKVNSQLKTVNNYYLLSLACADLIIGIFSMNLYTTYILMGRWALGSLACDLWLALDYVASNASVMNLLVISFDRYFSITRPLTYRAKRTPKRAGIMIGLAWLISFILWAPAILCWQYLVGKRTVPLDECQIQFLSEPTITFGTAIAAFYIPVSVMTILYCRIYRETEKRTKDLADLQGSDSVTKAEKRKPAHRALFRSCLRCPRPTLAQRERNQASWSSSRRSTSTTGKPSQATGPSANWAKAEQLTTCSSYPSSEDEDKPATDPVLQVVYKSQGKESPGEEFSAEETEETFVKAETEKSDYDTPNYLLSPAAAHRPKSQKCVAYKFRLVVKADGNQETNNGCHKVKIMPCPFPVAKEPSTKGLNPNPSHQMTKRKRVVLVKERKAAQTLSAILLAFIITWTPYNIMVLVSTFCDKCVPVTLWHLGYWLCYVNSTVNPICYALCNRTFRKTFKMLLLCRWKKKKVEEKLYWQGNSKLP
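system = human M5 receptor in CHO-K1 cells | compound = one concentration, 3 µM final (nominal) | schedule = Post-acetylcholine fluorescence recording 140 s | signal = Fluo-8 calcium dye fluorescence, kinetic read | benchmarks = low control EC20 acetylcholine (0%), high control EC100 acetylcholine (100%) | repeats = singlicate, one well per test compound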
TAAR1 antag: antagonists of human TAAR1; CHO RD-HGA16 TAAR1, Fluo-8 calcium fluorescence, antagonist; Q96RJ0; inhibition, % at 3 µM; 360,000 compounds, 1.5% hits;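 active = inhibition above a per-plate cutoff, the mean inhibition of test compounds on that plate plus 3 SD, cut at about 49% in these data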;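 also: 0% = DMSO plus EC80 beta-PEA response and 100% = DMSO alone without agonist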
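Test system – hTAAR1-expressing CHO RD-HGA16 cells, Gα16-coupled · Reagent – β-PEA at EC80 concentration, post-compound challenge · Compound dosing – 3 µM, single point · Timing – 140 s kinetic read after compound, 140 s after agonist · Detection – Fluo-8 intracellular calcium dye fluorescence, real-time kinetic reads · Control set – DMSO and EC80 PEA controls · Repeats – n of 1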
M5 antag: antagonists of human muscarinic M5 receptor (CHRM5). P08912. CHO-hM5 cells, Fluo-8 calcium fluorescence, ACh EC80. inhibition, % at 3 µM. 360,000 compounds, 0.59% hits;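 active = inhibition above a per-plate cutoff, the mean of that plate's test compounds plus 3 SD, cut at about 27% in these data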;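 also: 0% = acetylcholine EC80 with DMSO and 100% = DMSO without agonist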
M5 ag: CHRM5 agonism in calcium assay; AID 624037; CHO-K1 hM5 cells, Fluo-8 calcium fluorescence; 0% DMSO wells, 100% maximal acetylcholine response; activation, % at 3 µM; 360,000 compounds, 0.19% hits; P08912;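 active = activation above the run's mean over test compounds plus 3 SD, cut at about 23% in these data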;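 also: signal is peak over basal fluorescence ratio across the kinetic read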
* = called active by the depositor; / = not tested or not shown; & = joins results of further samples. A portion of the library, so the mix of outcomes need not match the whole.

mol | CHRM4 PAM | CHRM5 PAM | TAAR1 antag | M5 antag | M5 ag
CC1(C)O[C@@H]2C[C@H]3[C@@H]4C[C@H](F)C5=CC(=O)C=C[C@]5(C)[C@H]4[C@@H](O)C[C@]3(C)[C@]2(C(=O)CO)O1 | 1 | 0 | -3 | -7 | 2
Cn1cc[nH]c1=S | 1 | 0 | -4 | 0 | 0
NC(=O)N1c2ccccc2CC(=O)c2ccccc21 | 7 | 4 | -8 | 0 | 2
O=C(COc1ccc(Cl)cc1Cl)Nc1noc2ccccc12 | 1 | -2 | 30 | 2 | 0
CS(=O)(=O)c1ccc([C@@H](O)[C@@H](CO)NC(=O)C(Cl)Cl)cc1 | -7 | -4 | -19 | 1 | 1
CC(C)NCC(O)COc1cccc2[nH]ccc12 (stereo not given) | 6 | 7 | / | -12 | -1
C[C@]12CC[C@@H]3c4ccc(O)cc4CC[C@H]3[C@@H]1C[C@@H](O)[C@@H]2O | -4 | -7 | 3 | 2 | 1
CC[C@H](CO)NCCN[C@H](CC)CO | -2 | -5 | 9 | 3 | 1
C[C@H]1C[C@H]2[C@@H]3CCC4=CC(=O)C=C[C@]4(C)[C@@]3(F)[C@@H](O)C[C@]2(C)[C@@]1(O)C(=O)CO | -7 | -7 | 9 | 7 | 4
Cc1ccnc(NS(=O)(=O)c2ccc(N)cc2)n1 | 0 | 2 | -5 | -3 | 0
O=C(CSc1ncnc2ccccc12)NCc1ccc2c(c1)OCO2 | 11 | 9 | 1 | -5 | -5
COc1cccc2c1C(=O)c1c(O)c3c(c(O)c1C2=O)C[C@@](O)(C(C)=O)C[C@@H]3O[C@H]1C[C@H](N)[C@H](O)[C@H](C)O1 | -1 | 1 | -3 | -2 | 5
COCCc1ccc(OCC(O)CNC(C)C)cc1 (stereo not given) | 3&-6&-4 | -1&-3&-5 | -15&-18 | -6&1&-3 | 0&-1&0
COc1cc2c(cc1OC)C1C(=O)c3cc(OS(C)(=O)=O)c(OC)cc3C1N(C)C2=O (stereo not given) | 3 | 1 | 14 | -4 | 5
O=C(O)Cn1nc(C(F)(F)F)c2c1CCCCC2 | 2 | -4 | -7 | -1 | -1
CCC(CO)NCCNC(CC)CO (stereo not given) | -3 | -5 | -29 | -5 | 1
N[C@@H](Cc1cc(I)c(Oc2ccc(O)c(I)c2)c(I)c1)C(=O)O | -1&-8 | -1&0 | 1 | 2&-5 | 1&0
CC(=O)Oc1ccc(-c2cc3ccc(OC(C)=O)cc3oc2=O)cc1 | -1 | -3 | -24 | 6 | 1
COc1ccc(/C(N)=N/OC(=O)CSc2ccccc2)cc1 | -2 | 0 | 17 | 7 | -2
C=C1CC[C@H](O)C/C1=C/C=C1\CCC[C@]2(C)[C@@H]([C@H](C)/C=C/[C@H](C)C(C)C)CC[C@@H]12 | -5 | -3 | 13 | 2 | 1
CCC1OC(=O)C(C)C(OC2C[C@@](C)(OC)C(O)C(C)O2)C(C)C(O[C@@H]2OC(C)CC(N(C)C)C2O)[C@](C)(O)CC(C)C(=NOCOCCOC)C(C)C(O)[C@]1(C)O (stereo not given in full) | -1 | -7 | -4 | 2 | 1
CC12CCC3c4ccc(O)cc4CCC3C1CC(O)C2O (stereo not given) | 1 | -5 | -7 | -6 | 6
CNC(=O)Oc1ccc2c(c1)[C@]1(C)CCN(C)[C@@H]1N2C | 1&2 | 2&1 | -13&-6 | 5&-2 | -1&0
C[C@H]1C[C@@H]2[C@H]([C@@H](O)C[C@@]3(C)[C@H]2CC[C@]3(O)C(=O)CO)[C@@]2(C)C=CC(=O)C=C12 | 1 | 5 | 0 | -3 | 0
Cc1ccc2c(CC(=O)N3CCN(S(=O)(=O)c4ccc5c(c4)OCCO5)CC3)coc2c1 | -3 | -18 | 13 | 12 | -11
Cc1nc(=O)c(-c2ccccc2)c(C)n1-c1ccc(O)c(C(=O)O)c1 | 11 | 1 | -28 | -4 | 3

Exported with values ahead of the structure: 14 of the compounds above
CHRM4 PAM | CHRM5 PAM | TAAR1 antag | M5 antag | M5 ag | Compound
3&-6&-4 | -1&-3&-5 | -15&-18 | -6&1&-3 | 0&-1&0 | COCCc1ccc(OCC(O)CNC(C)C)cc1 (stereo not given)
3 | 1 | 14 | -4 | 5 | COc1cc2c(cc1OC)C1C(=O)c3cc(OS(C)(=O)=O)c(OC)cc3C1N(C)C2=O (stereo not given)
2 | -4 | -7 | -1 | -1 | O=C(O)Cn1nc(C(F)(F)F)c2c1CCCCC2
-3 | -5 | -29 | -5 | 1 | CCC(CO)NCCNC(CC)CO (stereo not given)
-1&-8 | -1&0 | 1 | 2&-5 | 1&0 | N[C@@H](Cc1cc(I)c(Oc2ccc(O)c(I)c2)c(I)c1)C(=O)O
-1 | -3 | -24 | 6 | 1 | CC(=O)Oc1ccc(-c2cc3ccc(OC(C)=O)cc3oc2=O)cc1
-2 | 0 | 17 | 7 | -2 | COc1ccc(/C(N)=N/OC(=O)CSc2ccccc2)cc1
-5 | -3 | 13 | 2 | 1 | C=C1CC[C@H](O)C/C1=C/C=C1\CCC[C@]2(C)[C@@H]([C@H](C)/C=C/[C@H](C)C(C)C)CC[C@@H]12
-1 | -7 | -4 | 2 | 1 | CCC1OC(=O)C(C)C(OC2C[C@@](C)(OC)C(O)C(C)O2)C(C)C(O[C@@H]2OC(C)CC(N(C)C)C2O)[C@](C)(O)CC(C)C(=NOCOCCOC)C(C)C(O)[C@]1(C)O (stereo not given in full)
1 | -5 | -7 | -6 | 6 | CC12CCC3c4ccc(O)cc4CCC3C1CC(O)C2O (stereo not given)
1&2 | 2&1 | -13&-6 | 5&-2 | -1&0 | CNC(=O)Oc1ccc2c(c1)[C@]1(C)CCN(C)[C@@H]1N2C
1 | 5 | 0 | -3 | 0 | C[C@H]1C[C@@H]2[C@H]([C@@H](O)C[C@@]3(C)[C@H]2CC[C@]3(O)C(=O)CO)[C@@]2(C)C=CC(=O)C=C12
-3 | -18 | 13 | 12 | -11 | Cc1ccc2c(CC(=O)N3CCN(S(=O)(=O)c4ccc5c(c4)OCCO5)CC3)coc2c1
11 | 1 | -28 | -4 | 3 | Cc1nc(=O)c(-c2ccccc2)c(C)n1-c1ccc(O)c(C(=O)O)c1

Source: PubChem BioAssay (The Scripps Research Institute Molecular Screening Center)
